Methyltransferases – Primary Screen for Target Class Profiling of Small Molecule Inhibitors of Methyltransferases; AID 1745853, 2022; purified enzyme, MTase-Glo SAH luminescence; hits give low values; calls only at 40 µM; 25,000 compounds, 3.9% hits; active = -50% or lower on at least one of six enzymes; inconclusive = the cases between; inactive = as a rule above -30% on all six;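 further: enzymes were COMT GAMT GNMT HNMT NNMT and PNMT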
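Each enzyme was reacted with SAM and its substrate, with compounds tested once at 40 uM; SAH formed was read by MTase-Glo luminescence.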
Calls only; i = inactive; ? = inconclusive; + = active, no number. On the % scale 0 is the no-effect control and ±100 the full control effect.

SMILES | Methyltransferases
C/C=C(/C)C(=O)O[C@@H]1C[C@@H](OC(=O)CC(C)C)C2(C)C3C(=O)C=C(C)C2C3C1(C)C (stereo partly specified) | i
CC1(C(=O)NC2CCCCCC2)Cn2c(ccc2-c2ccco2)C(=O)N1CCc1ccco1 (stereo unspecified) | i
Cc1cc(C)cc(N2C(=O)c3cc4sccc4n3CC2(C)C(=O)NC2CCCCC2C)c1 (stereo unspecified) | i
Cc1ccc(Cl)cc1Nc1nn2c(=O)c3ccc(C(=O)NC4CCC(C)CC4)cc3nc2s1 (stereo unspecified) | i
c1ccc(CN2CCNc3cnc(Nc4ccc(N5CCOCC5)cc4)cc3C2)cc1 | +
COC(=O)[C@H](Cc1ccc([N+](=O)[O-])cc1)NC(=O)c1cccc2ccccc12 | i
COc1cc(/C=C/C(=O)O[C@@H]2O[C@H](CO)[C@@H](O)[C@H](O)[C@H]2O)ccc1O | ?
CC1(C(=O)NC2CCCC2)Cn2c(ccc2-c2ccccc2)C(=O)N1Cc1ccco1 (stereo unspecified) | i
CC1(C(=O)NC2CCCCCC2)Cc2ccccc2C(=O)N1C1CCCCC1 (stereo unspecified) | i
c1ccc(CNc2nc3c(-c4ccccc4)nnn3c3ccccc23)cc1 | i
Cc1ccc(-c2nc(CNS(=O)(=O)C3CC3)[nH]c2-c2ccccn2)cc1 | i
COC(=O)[C@]12C(=O)C(C)=C(O)[C@@]1(C)C(C)=CC1[C@@]34CC[C@@H](OC(C)=O)C(C)(C)C3[C@H](C[C@]12C)OC4=O (stereo partly specified) | i
CCC(C)NC(=O)c1ccc2c(=O)n(C(C)C)c3nn(Cc4ccccc4F)c(=O)n3c2c1 (stereo unspecified) | i
CCOc1ccc(CN(CCOC)C(=O)C2CC3(CCNCC3)CN2)cc1 (stereo unspecified) | i
COCCCn1c(C)cnc1CC1CCN(C(=O)C2CCCCC2)CC1 | i

Overlap with the part before: 4 entries, followed by the next part.
SMILES | Methyltransferases
COC(=O)[C@]12C(=O)C(C)=C(O)[C@@]1(C)C(C)=CC1[C@@]34CC[C@@H](OC(C)=O)C(C)(C)C3[C@H](C[C@]12C)OC4=O (stereo partly specified) | i
CCC(C)NC(=O)c1ccc2c(=O)n(C(C)C)c3nn(Cc4ccccc4F)c(=O)n3c2c1 (stereo unspecified) | i
CCOc1ccc(CN(CCOC)C(=O)C2CC3(CCNCC3)CN2)cc1 (stereo unspecified) | i
COCCCn1c(C)cnc1CC1CCN(C(=O)C2CCCCC2)CC1 | i
CC(=O)OC1C(O)CC2(C)C(CCC3(C)C2CC=C2C4C5(CCC(CO[C@@H]6O[C@H](CO)[C@@H](O)[C@H](O)[C@H]6O)(OC5=O)C4(C)O)C(O)CC23C)C1(C)C (stereo partly specified) | i
COCCCNC(=O)C1(C)Cn2nc(-c3ccccc3)cc2C(=O)N1Cc1ccccc1Cl (stereo unspecified) | i
COc1ccc(OC)c(CCNC(=O)CNC(=O)C2(C)Cn3c(cc4ccccc43)C(=O)N2C)c1 (stereo unspecified) | i
O=C(Cn1c(=O)oc2cc(S(=O)(=O)N3CCCC3)ccc21)NCCc1ccc(Cl)cc1 | i
CN1CCN(CC(=O)N2c3ccccc3C(=O)Nc3cccnc32)CC1 | i
O=C(CCn1ccn2nc3c(c2c1=O)CCCC3)NCc1ccc(F)c(Cl)c1 | i
Cc1ccc(N2C(=O)CSc3c(c4ccccc4n3C)C2C(=O)NCCCOC(C)C)cc1C (stereo unspecified) | i
Cc1ccc(C(=O)CSc2nnc3n(C)c(=O)c4ccc(C(=O)NC5CCCC5)cc4n23)cc1 | i
O=C(CN1C(=O)C2(CCCCC2)C1c1ccccc1)NCCc1c[nH]c2ccccc12 (stereo unspecified) | i
CCOC(=O)N1CCC(Oc2cnc3c(ccn3-c3cncnc3)c2)CC1 | i
C=C(C(=O)O)C1CCC2(C)CCCC(C)(O)C2C1 (stereo unspecified) | ?
CCCOc1nccnc1NC1CCN(C(=O)c2cccnc2)CC1 | i
CC1(C(=O)NC2CCCCCC2)Cn2nc(-c3ccco3)cc2C(=O)N1Cc1cccc(Cl)c1 (stereo unspecified) | i
Cc1ccsc1C(=O)NC1CCN(c2cc(-c3ccc(F)cc3)[nH]n2)C1 (stereo unspecified) | i
CCCn1c(=O)c2cc(Cl)ccc2n2c(SCc3ccccc3)nnc12 | i
CC(=O)OCC1(O)CCC2C(COC3OC(CO)C(O)C(O)C3OC(=O)/C=C/c3ccc(O)cc3)=COC(OC(=O)CC(C)C)C21 (stereo unspecified) | i
Cn1c2c(c3ccccc31)C(C(=O)NCc1ccc(F)cc1)N(c1ccc(Cl)cc1)C(=O)CS2 (stereo unspecified) | i
CC1=C(C(=O)O)/C(=C/CO[C@@H]2O[C@H](COC(=O)/C=C/c3ccc(O)cc3)[C@@H](O)[C@H](O)[C@H]2O)C(O)C1 (stereo partly specified) | i
CCOc1ccc(CCN2C(=O)c3cc4ccccc4n3CC2(C)C(=O)NCCC(C)C)cc1 (stereo unspecified) | i
O=[N+]([O-])c1cn2c(n1)OC[C@@H](OCc1ccc(-c3ccc(OC(F)(F)F)cc3)nc1)C2 | i
CCC(C(=O)NC(=O)NC(C)=O)c1ccccc1 (stereo unspecified) | i
CN1C[C@H](O)C[C@H]1c1nnc2n1CCN(S(=O)(=O)c1ccccc1)CC2 | i
CC1(C(=O)NC2CCCCCC2)Cn2c(c(-n3cccc3)c3ccccc32)C(=O)N1Cc1cccnc1 (stereo unspecified) | i
CN1C(=O)c2cc(C(=O)NCCc3ccco3)nn2CC1(C)C(=O)NCc1ccccc1 (stereo unspecified) | i
Cc1ccccc1CN1C(=O)c2cc3occc3n2CC1(C)C(=O)NC1CCC(C)CC1 (stereo unspecified) | i
CCn1ccc(C(=O)N2CCC(C3CCN(C(C)=O)CC3)C2)n1 (stereo unspecified) | i
CCCCc1nc(Cl)c(CO)n1Cc1ccc(-c2ccccc2-c2nnn[nH]2)cc1 | ?
COCC(=O)N[C@@H]1CN(Cc2ccc(C)s2)CC[C@@H]1c1n[nH]c(C)n1 | i
COC(=O)c1ccc(CNC(=O)CC2c3cccnc3C(=O)N2c2ccccc2)cc1 (stereo unspecified) | i
Fc1ccc(-c2nnn3c2nc(N2CCCC2)c2ccccc23)cc1 | i
C[S+](=O)([O-])c1ccc(-c2cnc3n[nH]c(-c4ccccc4)c3n2)cc1 | ?
COc1nccc(-c2c(-c3ccc(F)cc3)ncn2C2CCNCC2)n1 | i
CCOc1ccc(N2C(=O)c3cc4occc4n3CC2(C)C(=O)NC2CCCC(C)C2C)cc1 (stereo unspecified) | i
Cc1ccc(Cn2c(=O)c3ccccc3n3c(=O)n(Cc4cccc(Cl)c4)nc23)cc1 | i
CCOC(=O)Cn1c(=O)oc2cc(S(=O)(=O)NCCc3ccc(Cl)cc3)ccc21 | i
CCC1c2ccc(C)n2CCN1C(=O)Nc1cccc(C)c1 (stereo unspecified) | i
CCC(C)NC(=O)c1ccc2c(=O)n(C)c3nnc(SCc4c(F)cccc4Cl)n3c2c1 (stereo unspecified) | i
NCC(=O)Nc1ccc(-n2nc(C(F)(F)F)cc2-c2ccc3c(ccc4ccccc43)c2)cc1 | i
Cc1nnc(C(=O)NC(C)(C)c2nc(C(=O)NCc3ccc(F)cc3)c(O)c(=O)n2C)o1 | ?
COc1ncccc1-c1cc2c(ccn2CC2CCN([S+](C)(=O)[O-])CC2)c(N2CCOCC2)n1 | +
Cc1cc2c(cc3n2CC(C)(C(=O)NC2CCCCCC2)N(CCCOC(C)C)C3=O)o1 (stereo unspecified) | i
Cc1cccc(N2C(=O)c3cc4sccc4n3CC2(C)C(=O)NC2CCCCC2)c1C (stereo unspecified) | i
CCC(C)NC(=O)c1ccc2c(=O)n(Cc3ccccc3)c3nn(CC(=O)NC(C)C)c(=O)n3c2c1 (stereo unspecified) | i
COC(=O)c1c(NC(C)=O)c2cc(NC3CCCC(C)(C)C3)cnc2n1CC1CCCO1 (stereo unspecified) | i
CCOC(=O)c1cc2n(n1)CC(C)(C(=O)NCc1ccccc1)N(Cc1cccc(C)c1)C2=O (stereo unspecified) | i
COc1ccc(-c2cc(C(=O)NCc3cccnc3)c3c(c2)N(C)CCO3)cc1OC | +
COc1ccc(C(=O)Nc2ccc3c(c2)CN(CCc2ccccc2)C(=O)C(C)O3)cc1OC (stereo unspecified) | i
CN[C@@H]1[C@@H](O)[C@@H](O[C@@H]2[C@@H](O)[C@H](O[C@H]3O[C@H](CN)[C@@H](O)[C@H](O)[C@H]3O)[C@@H](N)C[C@H]2NC(=O)[C@@H](O)CN)OC[C@]1(C)O | i
O=C1CN(Cc2cccc(Br)c2)S(=O)(=O)c2ccccc2N1Cc1ccccc1F | i
COc1ccc(CNc2nc3c(-c4cccc(C)c4)nnn3c3ccccc23)cc1 | i
O=C(O)c1ccc(O)c2ncc(N3CCCN(CCc4cccc5ccccc45)CC3)cc12 | +
Cc1cc2c(cc1S(=O)(=O)NCc1ccc(F)cc1)n(C)c(=O)n2C | i
CN1C(=O)c2cc(C(=O)NCc3ccc(F)cc3)nn2CC1(C)C(=O)NC1CCCC1 (stereo unspecified) | i
COc1ccc(C(=O)N[C@H]2CO[C@H]3[C@@H]2OC[C@@H]3Nc2nccc(-c3cccs3)n2)cc1 | i
CC1=CCC2C(C)(CO)CCCC2(CO)C1CO (stereo unspecified) | ?
CCCS(=O)(=O)N1CCCC(Cn2c(C)nc3cccnc32)C1 (stereo unspecified) | +
O=C1NCCOCCN(C(=O)NC2CCCCC2)[C@@H]2CCCC[C@H]12 | i
CC1CCCC(NC(=O)Cn2ccc3cc(S(=O)(=O)N4CCCC4)ccc32)C1C (stereo unspecified) | i
COc1ccccc1CNC(=O)C1(C)Cn2cnc(C(=O)Nc3ccccc3OC)c2C(=O)N1C1CC1 (stereo unspecified) | i
Cc1cc(C(=O)N2CCC3(CC2)CC(O)CCO3)c(C)o1 (stereo unspecified) | i
The list continues:
SMILES | Methyltransferases
Cc1ccc(Cn2c(=O)c3ccccc3n3c(=O)n(CC(=O)Nc4cccc(F)c4)nc23)cc1 | i
C=C1CC[C@H]2[C@@H](/C=C(\C)C(=O)[C@@]3(OC(C)=O)C[C@H](C)[C@H](OC(C)=O)[C@@H]3[C@H]1OC(C)=O)C2(C)C | i
Fc1ccccc1CN1CCCC2(CCN(c3cnccn3)C2)C1 (stereo unspecified) | i
COc1ccc2cc3n(c2c1)CC(C)(C(=O)NC1CCCCC1)N(C1CCCCCC1)C3=O (stereo unspecified) | i
CC(C)C[C@H](CC(=O)NO)C(=O)N[C@@H](Cc1ccc2ccccc2c1)C(=O)N[C@@H](C)C(=O)NCCN | i
COc1cc(/C=C/C(=O)OC2CC3CCC2(C)C3(C)C)ccc1O (stereo unspecified) | i
COc1ccc(NC(=O)CCc2nnc3n(CC(C)C)c(=O)c4ccccc4n23)cc1 | i
CC(=O)OC(C)C(C)(O)C(=O)O[C@@H]1CC[C@]2(C)CC(=O)C(=C(C)C)C[C@H]2[C@]1(C)OC(C)=O (stereo partly specified) | i
CN1C(=O)c2cc(C(=O)NCCc3cccs3)nn2CC1(C)C(=O)NC1CCCCCC1 (stereo unspecified) | i
CCCCCC(=O)N[C@H]1C[C@@H](Cc2cc(CN3CCOCC3)on2)C1(C)C | i
CCc1cc2c(cc3n2CC(C)(C(=O)NC2CCCCCC2)N(CCCN2CCCC2)C3=O)s1 (stereo unspecified) | i
Cc1cc(=O)n(CC(=O)NC(C)CCc2ccccc2)c(N2CCc3ccccc3C2)n1 (stereo unspecified) | i
O=C(Cn1nc2n(CCc3ccccc3)c(=O)c3ccccc3n2c1=O)Nc1ccc2c(c1)OCCO2 | i
CCOC(=O)c1cc2n(n1)CC(C)(C(=O)NC1CCCC1)N(c1ccc(C)cc1C)C2=O (stereo unspecified) | i
CCC1(CO)CCCN(CCCOc2ccc(C(N)=O)cc2)C1 (stereo unspecified) | i

5 compounds drawn at random from those above, as already listed:
SMILES | Methyltransferases
COc1ccccc1CNC(=O)C1(C)Cn2cnc(C(=O)Nc3ccccc3OC)c2C(=O)N1C1CC1 (stereo unspecified) | i
C[S+](=O)([O-])c1ccc(-c2cnc3n[nH]c(-c4ccccc4)c3n2)cc1 | ?
COc1ccc(NC(=O)CCc2nnc3n(CC(C)C)c(=O)c4ccccc4n23)cc1 | i
Cc1cc2c(cc1S(=O)(=O)NCc1ccc(F)cc1)n(C)c(=O)n2C | i
CC(=O)OC(C)C(C)(O)C(=O)O[C@@H]1CC[C@]2(C)CC(=O)C(=C(C)C)C[C@H]2[C@]1(C)OC(C)=O (stereo partly specified) | i

(more compounds)
SMILES | Methyltransferases
CCOC(=O)c1cc2n(n1)CC(C)(C(=O)NCc1ccc(F)cc1)N(c1cccc(CC)c1)C2=O (stereo unspecified) | i
Cc1ccc(S(=O)(=O)Nc2ccc3c(c2)CN(CCc2ccc(F)cc2)C(=O)C(C)O3)cc1F (stereo unspecified) | i
CC(C)(O)CNc1ncc(-c2ccnc(Nc3ccnc(Cl)c3)n2)c(CC2CC2)n1 | ?
CCOc1cccc(C2c3cccn3-c3sc4c(c3CN2C(=O)Nc2cc(OC)ccc2OC)CCCC4)c1 (stereo unspecified) | i
CCCOCCc1nc2c([nH]1)CC(C)(C)CNC2=O | i
CCOCCCNc1nc2c(S(=O)(=O)c3ccc(C)c(C)c3)nnn2c2ccccc12 | i
Cc1ccccc1CNC(=O)c1ccc2c(c1)C(O)CCCCCN2C (stereo unspecified) | i

Compound activity as filed in PubChem.

The list is partial; the hit share may differ from the screen's.
